H5N1 antiviral – antiviral screen in MDCK cells, H5N1 avian flu; cytopathic effect, luminescence, 72 h; active compounds read high; no value below 0 was filed and about half of the inactive calls have no number; reference of the scale not given here; inhibition, % at 50 µM; 96,000 tested, 0.07% active; in the data active = inhibition above about 25%
Active calls of the source: *; i = inactive. The list is partial (hit frequency here may not be typical).

compound | H5N1 antiviral
O=C(c1cc(-c2cccnc2)nc2ccc(Br)cc12)N1CCN(c2ncccn2)CC1 | i
CCOc1ccc2c(c1)C(C)=CC(C)(C)N2C(=O)Nc1ccccc1 | 1.9
CCOc1ccc(-n2cc(C(=O)Nc3ccc(Cl)cn3)c3cc(OC)c(OC)cc3c2=O)cc1 | i
CCCCN(CC)CCNC(=O)c1[nH]c(C)c(C(C)=O)c1C | 0.2
COC(=O)c1[nH]c2ccccc2c1NC(=O)CN1CCCc2ccccc21 | i
Cc1nn2c(NCCOCCO)c3c(nc2c1-c1ccccc1)CCCC3 | i
CC(CC(=O)c1cccs1)CC(=O)c1cccs1 | i
Nc1nnc(SCc2ccccc2F)n1-c1ccccc1 | i
Cc1nc2sc(C(c3ccccc3)N3CCN(c4ccccc4F)CC3)c(O)n2n1 (configuration not stated) | i
CCC1CCCCN1Cc1ccc(CNS(=O)(=O)c2ccc3c(c2)oc(=O)n3C)o1 (configuration not stated) | 2.2
Cc1ccc(NC(=O)CCn2cnc3ccccc3c2=O)cc1Cl | i
CCOC(=O)CSc1nnc(CNC(=O)c2ccc(OC)cc2OC)n1-c1ccc(OC)cc1 | 0.7
Cc1nn(-c2ccccc2)c(Cl)c1C(=O)NCC(C)C | i
O=C(Nc1ncccc1Cl)c1cccc(F)c1 | i
CN(c1cccc(NC(=O)CN2C(=O)c3ccccc3S2(=O)=O)c1)S(C)(=O)=O | i
CCC(CC)NC(=O)Cc1ccccc1OC | 0.8
CCOc1ccccc1N1CCN(CC(O)COc2ccc3c(C)cc(=O)oc3c2)CC1 (configuration not stated) | i
CCCC1=C(C(=O)OCC)C(c2ccc(F)cc2)n2ncnc2N1 (configuration not stated) | i
Cc1cc(C)c2[nH]c(=O)c(CN(CC3CCCO3)S(=O)(=O)c3ccc4c(c3)OCCO4)cc2c1 (configuration not stated) | i
CCCS(=O)(=O)N1CCC(C(=O)N2CCC3(CC2)OCCO3)CC1 | i
COc1ccc(N(C(=O)c2cccnc2)S(=O)(=O)c2ccc3c(c2)n(C)c(=O)n3C)cc1 | 0.2
N#CC(C(=O)Nc1ccccc1)=C1CCCCC1 | 1.2
O=C(NCCCn1ccnc1)C1CC(c2cccc(Br)c2)=NO1 (configuration not stated) | 0.5
COC(=O)/C=c1/s/c(=C(/C#N)C(=O)NCc2ccccc2)n(-c2ccccc2)c1=O | i
Cc1ccc(NC(=O)Cn2nnc(C(=O)NCc3ccco3)c2N)cc1 | 0.3
O=C(Nc1ccccc1)OCc1cn(-c2ccc(Cl)cc2)nn1 | i
O=C(c1ccccc1)N1CCN(c2ccc([N+](=O)[O-])c(NCc3ccco3)c2)CC1 | 1.7
O=C(O)C1CC=CCC1C(=O)Nc1ccccc1 (configuration not stated) | 0.2
CCOC(=O)c1c(NC(=S)NC(=O)c2ccc(Cn3cc(Cl)cn3)o2)sc2c1CCC(C)C2 (configuration not stated) | i
Cc1cc2oc(=O)cc(CSc3nnc(C)n3N)c2cc1C(C)C | 2.8

Structures listed so far that have a halogen (eleven):
compound | H5N1 antiviral
O=C(c1cc(-c2cccnc2)nc2ccc(Br)cc12)N1CCN(c2ncccn2)CC1 | i
CCOc1ccc(-n2cc(C(=O)Nc3ccc(Cl)cn3)c3cc(OC)c(OC)cc3c2=O)cc1 | i
Nc1nnc(SCc2ccccc2F)n1-c1ccccc1 | i
Cc1nc2sc(C(c3ccccc3)N3CCN(c4ccccc4F)CC3)c(O)n2n1 (configuration not stated) | i
Cc1ccc(NC(=O)CCn2cnc3ccccc3c2=O)cc1Cl | i
Cc1nn(-c2ccccc2)c(Cl)c1C(=O)NCC(C)C | i
O=C(Nc1ncccc1Cl)c1cccc(F)c1 | i
CCCC1=C(C(=O)OCC)C(c2ccc(F)cc2)n2ncnc2N1 (configuration not stated) | i
O=C(NCCCn1ccnc1)C1CC(c2cccc(Br)c2)=NO1 (configuration not stated) | 0.5
O=C(Nc1ccccc1)OCc1cn(-c2ccc(Cl)cc2)nn1 | i
CCOC(=O)c1c(NC(=S)NC(=O)c2ccc(Cn3cc(Cl)cn3)o2)sc2c1CCC(C)C2 (configuration not stated) | i

Continuation:
compound | H5N1 antiviral
CCOC(=O)Cc1csc(NC(=O)c2cccnc2)n1 | 0.0
c1ccc(-c2csc(N3CCOCC3)n2)cc1 | i
O=C1CN(C(=O)COC(=O)C2CC(=O)N(Cc3ccco3)C2)c2ccccc2N1 (configuration not stated) | 0.8
NC(=O)c1ccccc1-c1nc(-c2ccccc2)no1 | 0.3
O=C(O)c1nonc1-c1nonc1C(=O)O | i
COc1ccc(Cl)cc1NC(=O)/C=C\C(=O)O | i
COc1ccc(CCN(Cc2nc(-c3ccccc3)no2)Cc2nc(-c3ccccc3)no2)cc1OC | i
Cc1c(C#N)c(N=CN(C)C)c(C(=O)c2ccccc2)n1-c1ccc(Br)cc1 | 18.7
O=C(NCCc1ccc(Cl)cc1)Nc1cccc(Cl)c1 | 1.1
O=C(CSCc1ccc(Cl)cc1)Nc1nccs1 | 0.2
O=C(c1ccc(C#CC2(O)CCCCC2)cc1)N1CCOCC1 | 0.5
Cc1cc(Cl)ccc1OCC(=O)NC1CCCC1 | i
CCn1cc(Br)c(C(=O)Nc2ccc(C(=O)OC(C)C)cc2)n1 | i
CCOC(=O)C1=C(c2ccccc2)Nc2ncnn2C1c1ccccn1 (configuration not stated) | i
COc1cc2c(cc1NC(=O)c1ccncc1)oc1ccccc12 | i
CC#CP(=O)(OCC)C(O)(c1ccccc1)C(F)(F)F (configuration not stated) | 1.1
O=[N+]([O-])c1cccc(-c2nc(-c3ccccc3)c(-c3cccs3)[nH]2)c1 | i
COc1cccc(-c2csc(N3CCN(S(=O)(=O)c4ccc(F)cc4)CC3)n2)c1 | 1.5
CCOC(=O)CN1C(=O)COc2ccc(Cl)cc21 | i
O=C1CSC(c2c(F)cccc2Cl)N1c1cccc(F)c1 (configuration not stated) | 3.3
COc1cc2[nH]c(=S)nc(NCCCOC(C)C)c2cc1OC | i
CC(C)Sc1nc2sc(-c3ccccc3)cc2c(=O)n1N | i
O=C(Nc1ccccc1)N1CCCC2CCCCC21 (configuration not stated) | i
Cn1c(CCCNC(=O)c2ccccc2)nc2ccccc21 | 0.5
Nc1nn(S(=O)(=O)c2cccc3nsnc23)cc1-c1ccc(Br)cc1 | i
O=C(NC1CCCC1)c1nc2c(nnn2Cc2ccccc2Cl)c(=O)[nH]1 | i
O=C1C(NS(=O)(=O)c2cccs2)=C(N2CCN(c3ccccc3)CC2)C(=O)c2ccccc21 | i
COCc1cc(C)nc2sc(C(=O)N3CCN(c4ccccc4)CC3)c(N)c12 | i
CC(C)n1cc(NC(=O)C2CC(c3cccc(Br)c3)=NO2)cn1 (configuration not stated) | i
COc1ccc(-n2nc(C(=O)O)c3ccccc3c2=O)c(OC)c1 | 0.3
Cc1ccc(C(=O)OCC(=O)NCc2ccco2)cc1 | 0.5
CC(C)c1ccc(SCc2noc(C(=O)NCC3CCCO3)c2C(=O)O)cc1 (configuration not stated) | i
c1ccc(-c2nn3c(-c4ccccc4)nnc3s2)cc1 | 3.1
COC(=O)COc1ccc(S(=O)(=O)NCc2ccncc2)cc1 | 0.5
COc1ccc(OCC(=O)Nc2nnc(C)s2)cc1 | i
O=C(NCc1ccc2c(c1)OCO2)C1CCCN(S(=O)(=O)c2cccs2)C1 (configuration not stated) | i
Cc1cnn(C(=O)c2oc3ccccc3c2C)c1 | 0.1
O=C(NC1CCCCCC1)C1c2ccccc2C(=O)N1CCCN1CCOCC1 (configuration not stated) | 0.2
CCOC(=O)c1c(N)sc(C(O)(C(F)(F)F)C(F)(F)F)c1-c1ccc(F)cc1 | i
CCOC(=O)c1cccc(NC(=O)CSc2nc3ccccc3c(=O)n2CC)c1 | i
O=C(Nc1cnc2ccccc2c1)c1cccc(-n2cnnn2)c1 | i
Cc1ccc(-c2csc(NC(=O)Cc3cccs3)n2)cc1C | i
COc1ccccc1N1CCN(C(=O)C2CCC(Cn3c(=S)[nH]c4ccccc4c3=O)CC2)CC1 (configuration not stated) | 1.3
CNC(=O)c1cc2c(=O)n3cccc(C)c3nc2n(C(C)C)c1=N | 2.8
CC(C)NC(=S)N/N=C/c1cccs1 | 6.3
COC(=O)c1ccc(CSc2nc3c(c(=O)n2-c2ccc(C)cc2)SCC3)o1 | 0.1
COc1ccc(C(=O)Nc2nc3c(s2)Cc2cc(OC)ccc2-3)cc1 | i
Cn1nnnc1SCc1c(F)cccc1F | 0.5
CCOC(=O)C1C(=O)C=C(N2CCOCC2)CC1c1cccc(OC)c1 (configuration not stated) | i
Cc1cccn2c(=O)c(C=O)c(N3CCCCCC3)nc12 | 3.8
CN(C)c1ccc(N=C/C=C2\N(C)c3ccccc3C2(C)C)cc1 | i
C(=C\c1ccccc1)/CSc1nnc(-c2cnccn2)n1Cc1ccco1 | 0.9
CCCC(=O)Nc1sc(C(=O)OC)c(C)c1C(N)=O | 0.7
Cc1nc(SCC(=O)NCc2ccco2)nc(C)c1C | 8.1
Fc1cccc(Cl)c1Cn1nnc2c(NCc3ccccn3)ncnc21 | i
COc1ccccc1OCCCCCc1c(C)n[nH]c1C | i
O=C(CNC1C(=O)Nc2ccccc21)Sc1ccccc1 (configuration not stated) | 1.7
Cc1cc(C(=O)OCC(=O)Nc2nc(-c3ccccc3)cs2)c(C)o1 | i
CN1C(=O)C(O)(CC(=O)c2cccc(-n3cccc3)c2)c2ccccc21 (configuration not stated) | 3.2
CCCC(=O)C1=C(O)C(C(=O)OC)C(C)(C)CC1=Nc1ccccc1 (configuration not stated) | i

The results go on.
compound | H5N1 antiviral
COc1ccccc1N1CCN(C(=O)Nc2cccc(C)c2)CC1 | i
O=C(NCCOC(=O)C1COc2ccccc2O1)c1cccnc1 (configuration not stated) | 0.3
FC(F)(F)c1cccc(N2CCN(c3nnnn3-c3ccccc3)CC2)c1 | 0.6
COc1ccc(OC)c(CNc2nc3ccccc3n2CCN2CCCCC2)c1 | 0.0
Cc1sc2ncn(CC(=O)OC(C)C(=O)NC(C)(C)C)c(=O)c2c1C (configuration not stated) | i
CC(O)(CS(=O)(=O)c1ccccc1)C(=O)Nc1ccc(C(F)(F)F)cc1 (configuration not stated) | i
COc1ccccc1NC(=O)N1CCN(c2ncccn2)CC1 | 0.3
CCCC1C(=O)N(c2ccccc2)C1c1ccccc1 (configuration not stated) | 0.1
COc1ccc(C(=O)N2CC=C(c3ccccc3)CC2)cc1S(=O)(=O)N1CCOCC1 | 1.3
O=C(CSc1ncnc2nc[nH]c12)c1ccccc1 | 0.1
O=C(Nc1c(-c2ccccc2)nc2ccccn12)c1ccco1 | i
CCCN1CCN(S(=O)(=O)c2ccc(OC)c(Br)c2)CC1 | 1.4
CC(C)(C)n1nnnc1C(c1cccs1)N(Cc1ccccc1)Cc1cccnc1 (configuration not stated) | i
Cc1cc(-c2ccc(Cl)cc2)n2nc(N)nc2n1 | 0.5
O=C(CCSc1ccccc1)Nc1nnc(-c2ccccc2)o1 | i
O=C(Cc1ccccc1)Nc1ccccc1C(=O)O | i
CCCCCOC(=O)C1[C@H]2C(=O)N(c3ccccc3CC)C[C@]23C=C[C@H]1O3 (some centres not stated) | 0.7
COc1cccc(-c2nc(CSCC(=O)NCC3CCCO3)c(C)o2)c1 (configuration not stated) | i
COc1ccc(C(=O)n2nc(C)c(Br)c2C)cc1 | i
COc1ccc(S(=O)(=O)N2CCC(C(=O)N3CCCCC3)CC2)cc1OC | i
COc1ccc(NC(=O)c2ccc(CNc3c(NC4CCCCC4)c(=O)c3=O)cc2)c(OC)c1 | i
O=C(NC1CCCCCCC1)c1ccc(CNc2c(N3CCOCC3)c(=O)c2=O)cc1 | i
COc1ccc(NC(=O)c2ccco2)cc1NC(=O)c1cccc(OC(C)C)c1 | 1.2
Cc1ccc(-n2c(SCC(=O)Nc3ccc4c(c3)OCO4)nnc2-c2cccs2)cc1 | i
Cc1cccc(OCCC(=O)Nc2c(C)n(C)n(-c3ccccc3)c2=O)c1 | i
Cc1ccsc1-c1nc(CSCC(=O)N2CCN(c3ccccc3)CC2)c(C)o1 | 0.4
CCOC(=O)CNC(=O)CSc1nnc(-c2ccccc2OC)n1CC | 0.3
COn1c(-c2ccccc2)nc2c1CCc1nonc1-2 | 0.2
NC(=O)C[C@@H]1N[C@]2(C(=O)Nc3ccccc32)[C@@H]2C(=O)N(c3cc(C(F)(F)F)ccc3Cl)C(=O)[C@H]12 | i
COc1ccc2c(c1)[nH]c1c(=O)n(CCCn3ccnc3)cnc12 | 0.2
O=C(c1cc(-c2ccc(Cl)cc2)on1)N1CCOCC1 | 0.1
CSCC[C@H](NC(=O)OC(C)(C)C)c1nnc(SCC(=O)Nc2ccc(C)cc2C)o1 | 0.5
CCC(C)[C@H](NC(=O)Nc1cccc(Cl)c1)C(=O)O (some centres not stated) | i
O=S(=O)(N1CCOCC1)N1CCN(c2ccccc2F)CC1 | 0.3
COc1cc(C(=O)O/N=C(\N)c2ccncc2)cc(OC)c1OC | i
CC(C)C(c1nnnn1C1CCCC1)N1c2ccccc2CC1C (configuration not stated) | 1.0
COc1nc(N(C)C)nc(N(OC)S(=O)(=O)c2ccccc2Cl)n1 | i
O=C(Nc1ccccc1N1CCN(C(=O)c2ccccc2)CC1)c1cc(Br)ccc1Cl | 0.0
O=C(CN1C(=O)c2ccccc2S1(=O)=O)NCc1cccnc1 | i
CC1=NOC(=O)/C1=C\c1ccc(-c2ccc(Cl)cc2Cl)o1 | 0.7
CCCN(CCC)C(=O)CC(c1ccc(F)cc1)c1ccco1 (configuration not stated) | i
CCCC(=O)Nc1ccccc1NC(=O)CN(C)S(=O)(=O)c1ccc(C)cc1 | 0.3
O=C(c1ccc(Cl)cc1)c1oc2ccccc2c1CS(=O)c1ccccc1 (configuration not stated) | 0.2
CCN(CC)CCCn1c(C)cc2c(c1=O)C(c1cccc(Cl)c1)C(C#N)=C(N)O2 (configuration not stated) | 2.5
Cc1ccc(C(=O)Nc2ccccc2-c2ccccc2)cc1[N+](=O)[O-] | i
Clc1ccc(Cl)c(Oc2ccc(Oc3nc(Cl)ccc3Cl)cc2)n1 | 0.2

Source: PubChem BioAssay (SRMLSC)
